Source: PubChem
ugtP null kill = growth inhibition of S. aureus ugtP deletion strain; 0.54% of 330,000 active; AID 1259309; growth inhibition, % (no concentration beside the values); S. aureus RN4220 ugtP deletion, OD600 growth, 16 h; some inactives read as strong as hits;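 active = z-score under -3 and OD600 up to 0.15 on both plates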;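 note: plate controls were untreated wells for no effect and antibiotic for full effect; wells of about 80 µL received 100 nL stock; the first replicate is given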
PrP 5UTR inh = inhibition of PrP 5' UTR reporter expression | AID 488862 | cell-based PrP 5' UTR mRNA reporter, plate reader | inhibition, % (test concentration not listed) | 0.35% of 340,000 active;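 active = every replicate at 50% or more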;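 note: 0 = median of the neutral control wells; tested in H4 reporter cells; numbers are from one replicate; inactives centre near -14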
Autofluor counter = compound fluorescence in toxin protease inhibitor counterscreen; compound autofluorescence counterscreen, microsphere flow cytometry; stronger effect = higher value; 3.1% of 360,000 active; fluorescence intensity (concentration not given with the values); AID 624483;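 active = at least 3 SD above the mean of all compounds, about 16000 in these data; inconclusive = too few beads counted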;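 note: 100 nL of 1 mM stock went into each well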
BJeLR lethal = kills HRASV12-expressing BJeLR cells; inhibition, % (test concentration not listed); 0.17% of 300,000 active; AID 1554; BJeLR (HRASV12) viability, CellTiter-Glo ATP luminescence, 48 h; reference of the scale not given here;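 active = replicate mean above 50%; inconclusive = above 50% but judged a plate artefact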;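 note: 50 nL library stock added to about 25 µL; numbers are from one replicate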
Mtb hypoxia rep = inhibitors of hypoxia-regulated fluorescent reporter in Mycobacterium tuberculosis. M. tuberculosis hypoxia-regulated fluorescent reporter, fluorescence. fluorescence inhibition, % (concentration not given with the values). 0.1% of 300,000 active;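 active = 35 to 45% if threefold the growth effect, above 45% if 1.5-fold the growth effect; inactive = the rest, general growth blockers included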;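 note: wells of about 50 µL received 100 nL stock; 0% = vehicle wells and 100% = reference inhibitor wells; whole bacteria with a GFP reporter of the hypoxia response; strong numbers were not always called active; many hits fall short of the cut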
RN4220 kill = S. aureus RN4220 growth inhibition; OD600, 16 h; 0.33% of 330,000 active; inhibition, % (test concentration not listed); AID 1259311;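 active = z-score of -3 or lower and OD600 up to 0.18 on both plates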;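 note: plate controls were untreated cells for no effect and reference antibiotic for full effect; stock transfer was 100 nL into about 80 µL; one replicate is shown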
Mtb hypoxia rep growth = second read-out of Mtb hypoxia rep, no call of its own (marks repeat the call); growth inhibition, %; measured here: M. tuberculosis growth (absorbance);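 0% = vehicle and 100% = reference antibiotic; read after six days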
Starred values were filed as active, the others as inactive; ? = inconclusive; . = not tested or not shown.

SMILES	ugtP null kill	PrP 5UTR inh	Autofluor counter	BJeLR lethal	Mtb hypoxia rep	Mtb hypoxia rep growth	RN4220 kill
COc1ccc2ccccc2c1/C=N/NC(=O)CC1(C)OCCCO1	.	8	2457	-3	.	.	.
CCOC(=O)c1sc2ncnc(NCc3ccco3)c2c1C	0	3	3005	-10	.	.	2.4
CC(C)(CNCc1ccccc1)NS(=O)(=O)c1ccc(Cl)cc1	8	-10	3313	.	8	11	3.5
C/C=C(\C)C(=O)Nc1cccc(C2=NOC3(C2)C[C@H](C(N)=O)N(C(=O)C(c2ccccc2)c2ccccc2)C3)c1 (stereo partly specified)	.	-28	3975	-2	.	.	.
N#Cc1ccc(CN2CCN(C(=O)CC(NC(=O)c3ccccc3)c3ccccc3)CC2)cc1 (stereo unspecified)	5	-21	3565	-6	3	-5	-2.8
COc1ccc(NS(=O)(=O)c2ccc3nc(COc4ccc(Cl)c(C)c4)[nH]c3c2)cc1	-34	1	1999	-15	-8	13	-6.4
CCN1C(=O)C(C(=O)NC(C)c2ccccc2)C2CC1(C)Oc1ccccc12 (stereo unspecified)	11	-29	2058	-1	-3	1	-3.8
Cc1ccc(CNC(=O)[C@@H](NC(=O)C2CCN(C(=O)[C@@H](N)CC(C)C)CC2)C(C)C)cc1	7	-20	5148	1	.	.	2.7
O=C(O)c1ccc(-n2c(-c3cc(C4CC4)[nH]n3)n[nH]c2=S)cc1	-5	-28	3729	2	13	14	4.0
Cc1ccccc1N(C(=O)CS(=O)CC(=O)Nc1ccc(F)cc1)C(C)C(=O)NC(C)(C)C (stereo unspecified)	0	-15	5538	-2	-3	-9	-0.6
N#C/C(=C\C=C\c1ccccc1)c1nc(-c2ccc(Cl)cc2)cs1	2	-9	2973	8	5	-4	0.5
COc1ccccc1/C=C/CN1CCNC(=O)C1CC(=O)NCCc1cnccn1 (stereo unspecified)	1	-26	?	-3	2	2	-0.5
CC(/C=C/c1ccc2c(c1)OCO2)=N/NC(=O)c1ccncc1	.	-11	4074	-12	.	.	.
COc1cc(C(=O)NCc2nnc(SCC(=O)Nc3nc4ccccc4s3)o2)cc(OC)c1OC	.	-35	2184	0	.	.	.
CC(=O)c1ccc(NC(=S)Nc2ccc(Br)c(Cl)c2)cc1	100*	-19	4429	0	7	5	100*
CCn1cc(C(=O)OCC(=O)N(C)C2CCS(=O)(=O)C2)c(=O)c2ccc(C)nc21 (stereo unspecified)	3	-23	2271	1	14	11	-3.6
Cc1ccc(C)c(S(=O)(=O)NCCCN2CCOCC2)c1	2	-15	4377	6	-5	2	-0.6
O=C(NCC(c1ccc(F)cc1)N1CCOCC1)c1ccc(Br)o1 (stereo unspecified)	0	3	5981	7	0	-4	-1.6
COc1ccc(-c2nn(-c3ccccc3)cc2C2CC(c3cccs3)=NN2C(=O)CCC(=O)O)cc1 (stereo unspecified)	1	-16	.	-4	4	12	2.8
O=C(N=C1SC2CS(=O)(=O)CC2N1c1ccc(Cl)cc1Cl)C1CC1 (stereo unspecified)	4	-20	5113	3	8	8	2.0

Compound profiles (already shown):
`COc1ccc2ccccc2c1/C=N/NC(=O)CC1(C)OCCCO1` reads ugtP null kill = .; PrP 5UTR inh = 8; Autofluor counter = 2457; BJeLR lethal = -3; Mtb hypoxia rep = .; Mtb hypoxia rep growth = .; RN4220 kill = .
`COc1ccc(-c2nn(-c3ccccc3)cc2C2CC(c3cccs3)=NN2C(=O)CCC(=O)O)cc1` (stereo unspecified) reads ugtP null kill = 1; PrP 5UTR inh = -16; Autofluor counter = .; BJeLR lethal = -4; Mtb hypoxia rep = 4; Mtb hypoxia rep growth = 12; RN4220 kill = 2.8
`COc1ccc(NS(=O)(=O)c2ccc3nc(COc4ccc(Cl)c(C)c4)[nH]c3c2)cc1` reads ugtP null kill = -34; PrP 5UTR inh = 1; Autofluor counter = 1999; BJeLR lethal = -15; Mtb hypoxia rep = -8; Mtb hypoxia rep growth = 13; RN4220 kill = -6.4

Following part.
SMILES	ugtP null kill	PrP 5UTR inh	Autofluor counter	BJeLR lethal	Mtb hypoxia rep	Mtb hypoxia rep growth	RN4220 kill
Cc1ccc(NC(=O)C2=NNC(=O)CC2)cc1F	2	-59	3564	1	5	-13	2.9
CCOC(=O)C1=C(C)NC(=O)NC1/C=C/c1ccccc1OC (stereo unspecified)	4	-16	3412	-7	0	5	2.5
Fc1cccc(F)c1-c1nc2c(s1)CCc1onc(-c3ccc(Br)cc3)c1-2	-14	2	3332	-29	5	6	24
O=C(Cc1ccc(Cl)cc1)Nc1cccc(S(=O)(=O)N2CCCCC2)c1	-6	10	4163	.	6	7	-2.4
O=C(NCc1ccc(F)cc1)C1CCCN(C(=O)Nc2ccc(F)cc2)C1 (stereo unspecified)	1	6	2942	0	-4	7	-3.0
O=C(CSc1ncccn1)N1CCCCCC1	-2	-22	4017	.	10	10	1.7
O=C1c2ccccc2S(=O)(=O)N1CC1CC(c2ccc(Cl)cc2)=NO1 (stereo unspecified)	-7	-71	9082	-1	5	4	0.4
CCCc1c(CC)c(=N)c2ccccc2n1C	0	-22	15933	15	-2	6	-0.2
CCCCCn1c(SC(C)C(C)=O)nc2c1c(=O)[nH]c(=O)n2C (stereo unspecified)	10	6	4511	-1	1	-2	2.3
CCn1cc(C=NNC(=O)c2ccc(F)cc2)cn1	12	.	.	.	-4	-6	8.0
COC(=O)C1=C(c2ccc(S(C)(=O)=O)cc2)C[C@@H]2CC[C@H]1N2C(=O)N1CCCCC1	.	-18	2977	5	.	.	.
Cc1cccc(N2CC(C(=O)Nc3ccc(S(=O)(=O)N4CCOCC4)cc3)CC2=O)c1C (stereo unspecified)	3	-29	3221	4	12	10	1.8
CN(CCO)C(=O)c1ccc(-c2nn(C)c(=O)c3ccccc23)cc1	1	0	3624	-16	11	15	6.3
COc1ccc(S(=O)(=O)N2CC=C(C(=O)NC3CCCC3)CC2)cc1	1	-24	5716	2	3	1	-1.6
CCc1nc2c(s1)CCc1onc(-c3ccc(Cl)cc3)c1-2	0	-7	2991	-1	1	2	-6.0
CCN1CCN(C(=O)C(NS(=O)(=O)c2ccc3nc(C)sc3c2)C(C)C)CC1 (stereo unspecified)	-2	7	4169	-5	.	.	0.4
CCCCN=C1N/C(=C\c2ccco2)C(=O)N1c1ccccc1	.	-15	3258	3	.	.	.
Cc1ccc(S(=O)(=O)N2CCN(C(=O)CCc3nc4ccccc4c(=O)[nH]3)CC2)c(C)c1	0	-7	6286	0	3	-5	2.1
COc1cccc(Cn2c(N)c(C#N)c3nc4ccccc4nc32)c1OC	2	-7	4952	-11	-4	6	5.0
NS(=O)(=O)OCC1CCCCC1	-5	-13	3719	-6	3	-1	3.0
COc1ccc(OC)c(CNC(=O)C2CCCN(c3ncnc4c3nc3n4CCCCC3)C2)c1 (stereo unspecified)	9	-26	6803	7	11	2	5.2
Cc1ccc(N=Nc2c(N)n(-c3ccccc3)[nH]c2=O)cc1	8	-62	2541	-15	-2	-9	16
O=C(Nc1nc2ccc([N+](=O)[O-])cc2s1)C1CCCO1 (stereo unspecified)	4	-41	1911	-5	13	13	3.3
COc1ccc(CN=C(Nc2ccccc2)SC2CC(=O)N(C)C2=O)cc1 (stereo unspecified)	-2	-4	2090	-2	.	.	3.8
Cc1[nH]c(=O)[nH]c1CN1CCCCC1	12	.	.	-1	-82	-6	4.3
COC(=O)C1CC[C@@](C)(c2ccc(OC)cc2)C1(C)C (stereo partly specified)	22	.	.	.	13	2	1.1
O=c1cc(-c2ccccc2)oc2ccc(O)cc12	0	-14	3382	-9	14	11	9.2
O=C(COC(=O)c1cccc(S(=O)(=O)NCc2ccccc2)c1)Nc1ccccc1OC(F)F	1	-8	4762	-13	.	.	1.3
C=CCOn1c(-n2nc(C)cc2C)nc2ccccc2c1=O	3	-11	3745	1	12	7	4.0
CC(C)COc1ccc(C(=O)Nc2scc(-c3ccc(Cl)cc3Cl)c2C(N)=O)cc1	-7	-19	9523	9	-1	-5	0.6
Cc1ccc(NC(=O)COC(=O)CSC(=S)N2CCOCC2)cc1	10	-37	4264	-6	4	8	11
Cc1ccsc1C(=O)OCC(=O)N(Cc1ccccc1)C(C)C	5	-19	4238	.	4	12	1.5
O=C(COC(=O)C(Cc1ccccc1)NC(=O)c1ccc(Cl)cc1)c1ccc(Cl)cc1 (stereo unspecified)	7	-13	2504	1	-2	-9	33
COc1ccc(CCNc2oc(COc3ccccc3)nc2C#N)cc1	0	-24	5208	-43	7	9	-3.1
O=C(CSc1nc2ccccc2[nH]1)Nc1nc(-c2ccc(Br)cc2)cs1	69	-16	2447	-6	14	4	-0.7
CCc1nnc(NC(=O)c2ccc(S(=O)(=O)N(CCOC)CCOC)cc2)o1	-2	2	4432	0	.	.	1.2
COc1cc(OC)cc(C(=O)N(Cc2cc3cc(C)ccc3[nH]c2=O)C(C)C)c1	-11	-12	3283	5	-5	-6	-3.8
O=C(Nc1cccc(C(F)(F)F)c1)c1cccnc1N1CCOCC1	2	-10	2994	-4	-2	13	1.8
O=C(/C=C/Nc1ccc(Nc2ccccc2)cc1)c1cccs1	4	-110	3539	-10	9	5	4.7
COC(C[C@@H]1O[C@H]1C(=O)COCc1ccccc1)OC	.	-16	2936	5	.	.	.
CCOc1ccc(S(=O)(=O)N2CCCC(C(=O)NCC3CCCO3)C2)cc1 (stereo unspecified)	-3	-2	5827	5	-4	6	0.9
N=C1CCCN1CC(=O)c1cccs1	-2	6	3413	7	3	12	-0.4
COC(=O)c1ccccc1Nc1ccnc(Cl)n1	-2	-1	5798	-11	-1	4	5.1
Cc1ccc(C(=O)NCc2ccco2)cc1S(=O)(=O)N1CCCC1	11	-22	4654	-1	4	2	0.7
CC(C)c1cc(-c2cc(-c3ccccc3)on2)nc(NC2CCCC2)n1	-3	-6	3648	10	4	17	-5.6
CCC(CC)C(=O)c1c[nH]c(C(=O)NCCc2ccccn2)c1	-2	-9	2918	8	.	.	-1.5
CCn1c(N2CCN(C(=O)C34CC5CC(CC(C5)C3)C4)CC2)nc2ccccc21	-5	-13	3717	-19	-1	1	-3.7
Cc1ccc(Cn2cc(SCC(=O)Nc3nccs3)c3ccccc32)cc1	-20	-10	4460	-12	2	11	-14
O=C(COc1coc(CN2CCc3ccccc32)cc1=O)Nc1ccccc1	-1	-12	?	1	-1	0	1.0
Cc1ccc(CN2CC(C(=O)NCC(=O)Nc3c(C)cccc3C)CC2=O)cc1 (stereo unspecified)	0	-3	?	-1	-3	0	-0.1
Cc1ccc(C(=O)NC(C)c2ccc(F)cc2)cc1 (stereo unspecified)	1	-22	2532	-5	.	.	-3.0
CCN(CCCn1c(=S)[nH]c2ncccc2c1=O)c1ccccc1	-2	-10	3103	-2	12	-3	6.4
O=C(CNS(=O)(=O)Cc1ccccc1)NCc1ccccc1	4	-9	5425	-6	-7	9	-1.9
Cc1csc2ncc(C(=O)Nc3ccccc3Cl)c(=O)n12	-10	-61	5423	6	9	3	1.0
CCCNC(=O)NNC(=O)c1cc(-c2ccc3c(c2)OCO3)nc2ccccc12	-1	6	4136	-5	3	-1	-0.1
O=C(Nc1ccc(Cl)cc1Cl)c1ccc2c(=O)n3c(nc2c1)CCC3	-6	-82	?	13	-8	-5	6.7
COCCN1C(=O)NC(CCc2ccccc2)C(C(C)=O)C1C (stereo unspecified)	-9	.	.	.	13	2	4.7
COc1ccccc1CNC(=O)C1Cc2cc(S(=O)(=O)N3CCCC3)ccc2N1C(C)=O (stereo unspecified)	-5	0	5812	-16	-6	2	-1.7
O=C(Nc1ccc(Br)cc1)c1csc(-c2ccncc2)n1	3	-35	5097	5	4	-2	7.9
CN1C(=O)c2cccc(NC(=O)Cc3ccccc3)c2C1=O	3	6	5537	-3	6	7	0.2

Looked up above.
Entry for `O=C(CNS(=O)(=O)Cc1ccccc1)NCc1ccccc1` in Mtb hypoxia rep: -7
Entry for `O=C(Nc1ccc(Br)cc1)c1csc(-c2ccncc2)n1` in ugtP null kill: 3

Next section
SMILES	ugtP null kill	PrP 5UTR inh	Autofluor counter	BJeLR lethal	Mtb hypoxia rep	Mtb hypoxia rep growth	RN4220 kill
CCN(CC(=O)Nc1ccc(OC)cc1)CC(=O)Nc1sc2c(c1C(=O)OC)CCCC2	-15	-25	6022	.	-3	6	2.6
Cc1nc(Oc2ccccc2)c2oc3ccccc3c2n1	-3	-10	4402	11	.	.	18
CCc1c(C)nc2ncnn2c1Nc1ccc(C)c(C)c1	0	-21	3000	-1	8	11	4.9
Cc1cc(SCC(=O)NC2CC2)nc2ccccc12	2	-11	7214	.	7	6	11

Hits appear at their usual frequency (roughly 4% active in at least one column).
